Bioassay records as filed in PubChem BioAssay.
FPR binding – FPR binders displacing fluorescent formyl peptide, primary screen, U937-FPR cells, fMLFK-FITC, flow cytometry (AID 362); U937-FPR cells, fMLFK-FITC displacement, flow cytometry; stronger effect = higher value; test concentration not given here; most inactive calls were filed without a number and no value below 0 was filed; inhibition, %; 1% of 4,300 active;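 active = inhibition of labelled peptide binding to the formyl peptide receptor of at least 65%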;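 note: plate controls were buffer control wells for no effect and unlabeled fMLFF blocking peptide for full effect; higher means less cell fluorescence so more probe displaced; part of the set was picked by virtual screening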
* marks the source's active call; other numbers are inactive results; i = inactive.

SMILES	FPR binding
COc1ccc(CC(=O)NCC2(c3ccc(OC)c(OC)c3)CCCC2)cc1OC	3
CCCCn1c(SCC(=O)NC2CCCCC2)nc2ccc(N3CCOCC3)cc2c1=O	3
CCCCN(C)Cc1c(O)ccc2c(=O)c(Oc3ccccc3Br)c(C(F)(F)F)oc12	0
CC(C)(C)c1cc(C(c2ccccn2)N2CCCC2)cc(C(C)(C)C)c1O (stereo not given)	i
O=C(O)C1C2CC3C1C(=O)Oc1ccccc1C1c4sc(=O)[nH]c4SC2C13 (stereo not given)	2
COc1ccc(C2(CNS(=O)(=O)c3ccc(C)cc3)CCOCC2)cc1	i
COc1cc2c(C(=O)N(C)c3ccc(Br)cc3)cn(CC(C)C)c(=O)c2cc1OC	i
COC(=O)c1ccc(Oc2c(C(F)(F)F)oc3cc(O)ccc3c2=O)cc1	21
Cc1ccc(S(=O)(=O)NCC2CCC(C(=O)NC3CCCC3)CC2)cc1 (stereo not given)	i
CC(C)CN(CC(C)C)S(=O)(=O)N1CCC(C(=O)N2CCc3ccccc3C2)CC1	i
NC(=O)C1(N2CCCCC2)CCN(c2ccc(N3C(=O)C4C5C=CC(C5)C4C3=O)cc2[N+](=O)[O-])CC1 (stereo not given)	i
COC(=O)c1ccc2c(c1)C1C=CCC1C(c1cccc([N+](=O)[O-])c1)N2 (stereo not given)	11
Cc1ccc(-n2c3c(c(=O)[nH]c2=O)C(NS(=O)(=O)c2ccccc2)(C(F)(F)F)C(=O)N3)cc1 (stereo not given)	11
COC(=O)C1C(=O)C2=C(CC1C)NC(C)=C(C(=O)OCCOc1ccccc1)C2c1ccc(F)cc1 (stereo not given)	3
O=C(NC1CCCCCC1)C1CCC(CNS(=O)(=O)c2cccs2)CC1 (stereo not given)	48
CCC(C)(C(=O)NC1CCCC1)N(Cc1ccco1)C(=O)CNC(C)=O (stereo not given)	5
COc1ccc2c(=O)c(-c3ccccc3OC)c(C(F)(F)F)oc2c1	i
CC(C(=O)Nc1ccccn1)N1C(=O)C2C3C=CC(C3)C2C1=O (stereo not given)	i
CCCCN(CCCC)C(=O)c1cc2c(=O)n3ccccc3nc2s1	2
COc1cccc(CNC(=O)c2cn(CC(C)C)c(=O)c3c2c2ccccc2n3C)c1	i
O=C(Nc1ccc(OC(F)(F)F)cc1)C1CCC(CNS(=O)(=O)c2cccs2)CC1 (stereo not given)	8
Cc1cc2ncn(-c3ncnc4sc5c(c34)CCCC5)c2cc1C	i
CCCC(C)COC(=O)C1=C(C)NC(=O)NC1c1ccc(O)c([N+](=O)[O-])c1 (stereo not given)	35
COc1ccc(CNC(=O)CCCCCn2c(SCC(=O)NCc3ccco3)nc3cc4c(cc3c2=O)OCO4)cc1	1
CCc1ccc(NC(=O)C(NS(=O)(=O)c2ccc3c(c2)CCN3C(C)=O)C(C)C)cc1 (stereo not given)	i
COc1cc(/C=C2/C(C)=C(C#N)c3nc(N)c(C#N)c(C)c32)ccc1O	i
CCC1CCCCN1CCCNC(=O)c1cn(CC(C)C)c(=O)c2c1c1ccccc1n2C (stereo not given)	i
COc1ccc(OC)c(C2/C(=C(/O)c3ccc(C)cc3)C(=O)C(=O)N2CC(C)C)c1 (stereo not given)	87*
CCN(C(=O)OC(C)C)c1ccc(C(O)(C(=O)OC)C(F)(F)F)cc1 (stereo not given)	6
COc1ccc2c(c1)c1c3n2CCNC3CCC1 (stereo not given)	i
COc1ccc2c(=O)c(-c3ccccc3C)c(C(F)(F)F)oc2c1C	17
CC(C)CCNC(=O)CSc1nc2ccccc2c(=O)n1CC1CCC(C(=O)NCc2ccco2)CC1 (stereo not given)	3
CCCCn1c(SCC(=O)NCc2ccccc2)nc2ccc(N3CCOCC3)cc2c1=O	i
CC(=O)NCC(=O)N(Cc1cccs1)C1(C(=O)NC2CCCC2)CCCCC1	i
CCCOC(=O)C1=C(C)NC2=C(C(=O)C(C(=O)OC)C(C)C2)C1c1cc(OC)ccc1OC (stereo not given)	7
CCOc1ccccc1C(=O)NC1(C(F)(F)F)C(=O)Nc2c1c(=O)[nH]c(=O)n2-c1ccccc1 (stereo not given)	63
CCC(C)OC(=O)C1=C(C)NC2=C(C(=O)C(C(=O)OC)C(C)C2)C1c1ccc(C)cc1 (stereo not given)	50
CCCCCC(O)(c1ccc(OCC)cc1)C(CN1CCOCC1)c1ccccc1 (stereo not given)	21
CCCCCn1c(CN2CCN(c3ccccc3)CC2)nc2c1c(=O)n(C)c(=O)n2C	i
COC(=O)C1C(=O)C2=C(CC1C)NC(C)=C(C(=O)OC1CCCC1)C2c1ccccc1OC (stereo not given)	12
O=C(CSc1nc2ccccc2c(=O)n1CC1CCC(C(=O)NCc2ccco2)CC1)Nc1nccs1 (stereo not given)	i
CCCCCC(=O)Oc1cccc(N2C(=O)C3C4CCC(C4)C3C2=O)c1 (stereo not given)	i
CCCN1CCN(C(=O)C2CCC(CNS(=O)(=O)c3ccc(C)cc3)CC2)CC1 (stereo not given)	i
CN1C(=O)CC(c2ccccc2)C2=C1CC(C)(C)CC2=O (stereo not given)	i
COc1ccc(C(CCNCc2ccccc2)C2CCOC(C)(C)C2)cc1 (stereo not given)	i
CCCc1c(C(=O)OCC)[nH]c2c1C(=O)CC(c1ccc(Cl)cc1)C2 (stereo not given)	i
CCOCCOC(=O)C1=C(C)NC2=C(C(=O)C(C(=O)OC)C(C)C2)C1c1ccc(OC)cc1 (stereo not given)	44
CCCc1cc(=O)oc2cc(OCC(=O)OCC)cc(OCC(=O)OCC)c12	i
COc1cc(/C=C2\CC(C(C)(C)C)C/C(=C\c3cc(OC)c(OC)c(OC)c3)C2=O)cc(OC)c1OC (stereo not given)	i
CCOc1ccc(CCNC(=O)C2CCC(CNS(=O)(=O)c3ccccc3)CC2)cc1OCC (stereo not given)	i
CC1(C)CC(=O)C2=C(C1)Nc1ncnn1C2c1ccc(F)cc1 (stereo not given)	i
CCOC(=O)C(O)(c1ccc(N(CC)C(=O)OC(C)C)cc1)C(F)(F)F (stereo not given)	13
COC(=O)C1C(=O)C2=C(CC1C)NC(C)=C(C(=O)OC1CCCC1)C2c1ccc2c(c1)OCO2 (stereo not given)	2
COc1ccc(C2CC(=O)C3=C(C2)NC(C)=C(C(=O)OC2CCCCC2)C3c2cc(OC)c(OC)c(OC)c2)cc1 (stereo not given)	22
COc1ccc(S(=O)(=O)Nc2cc(C(=O)N3CCCCCC3)ccc2N2CC3CC(C2)c2cccc(=O)n2C3)cc1 (stereo not given)	52
CCC(C)OC(=O)C1=C(C)NC2=C(C(=O)C(C(=O)OC)C(C)C2)C1c1ccc(F)cc1 (stereo not given)	6
CC(C)Cn1cc(C(=O)N2CCCCCC2)c2c3ccccc3n(C)c2c1=O	3
O=C(O)c1ccccc1SC1CC(=O)N(c2ccccc2C(F)(F)F)C1=O (stereo not given)	i
COc1ccc(C2C3=C(CC(C)(C)CC3=O)OC3=C2C(=O)CC(C)(C)C3)cc1OC	5
CCOC(=O)C1=C(C)NC2=C(C(=O)C(C(=O)OC)C(C)C2)C1c1ccccc1OC (stereo not given)	2

Ordered by count of non-hydrogen atoms (lowest first): part of the list above
SMILES	FPR binding
COc1ccc2c(c1)c1c3n2CCNC3CCC1 (stereo not given)	i
CN1C(=O)CC(c2ccccc2)C2=C1CC(C)(C)CC2=O (stereo not given)	i
CC1(C)CC(=O)C2=C(C1)Nc1ncnn1C2c1ccc(F)cc1 (stereo not given)	i
Cc1cc2ncn(-c3ncnc4sc5c(c34)CCCC5)c2cc1C	i
COc1ccc2c(=O)c(-c3ccccc3OC)c(C(F)(F)F)oc2c1	i
COC(=O)c1ccc2c(c1)C1C=CCC1C(c1cccc([N+](=O)[O-])c1)N2 (stereo not given)	11
COC(=O)c1ccc(Oc2c(C(F)(F)F)oc3cc(O)ccc3c2=O)cc1	21
CC(=O)NCC(=O)N(Cc1cccs1)C1(C(=O)NC2CCCC2)CCCCC1	i
CCCN1CCN(C(=O)C2CCC(CNS(=O)(=O)c3ccc(C)cc3)CC2)CC1 (stereo not given)	i
CCCCCC(O)(c1ccc(OCC)cc1)C(CN1CCOCC1)c1ccccc1 (stereo not given)	21
COc1cccc(CNC(=O)c2cn(CC(C)C)c(=O)c3c2c2ccccc2n3C)c1	i
CCCCn1c(SCC(=O)NC2CCCCC2)nc2ccc(N3CCOCC3)cc2c1=O	3
Cc1ccc(-n2c3c(c(=O)[nH]c2=O)C(NS(=O)(=O)c2ccccc2)(C(F)(F)F)C(=O)N3)cc1 (stereo not given)	11
CCOc1ccc(CCNC(=O)C2CCC(CNS(=O)(=O)c3ccccc3)CC2)cc1OCC (stereo not given)	i
NC(=O)C1(N2CCCCC2)CCN(c2ccc(N3C(=O)C4C5C=CC(C5)C4C3=O)cc2[N+](=O)[O-])CC1 (stereo not given)	i
CC(C)CCNC(=O)CSc1nc2ccccc2c(=O)n1CC1CCC(C(=O)NCc2ccco2)CC1 (stereo not given)	3
COc1ccc(S(=O)(=O)Nc2cc(C(=O)N3CCCCCC3)ccc2N2CC3CC(C2)c2cccc(=O)n2C3)cc1 (stereo not given)	52
COc1ccc(CNC(=O)CCCCCn2c(SCC(=O)NCc3ccco3)nc3cc4c(cc3c2=O)OCO4)cc1	1

Other structures.
SMILES	FPR binding
CC1(C)CC(=O)C2=C(C1)OC(N)=C(C#N)C2(C)C	i
CC1=C(C(=O)OC2CCCC2)C(c2ccc(O)cc2)NC(=O)N1 (stereo not given)	i
COCCOC(=O)C1=C(C)NC2=C(C(=O)C(C(=O)OC)C(C)C2)C1c1ccc(-c2ccccc2)cc1 (stereo not given)	i
COC(=O)C1C(=O)C2=C(CC1C)NC(C)=C(C(=O)OCCOc1ccccc1)C2c1cccc(F)c1 (stereo not given)	2
CCc1cc2c(=O)c(Oc3ccccc3)c(C(F)(F)F)oc2cc1OC(C)=O	121*
C/C=C/COC(=O)C1=C(C)NC(=O)NC1c1ccc(OCC)c(OC)c1 (stereo not given)	i
Cc1sc2ncn(CC(=O)Nc3cnc4ccccc4c3)c(=O)c2c1S(=O)(=O)N1CCC(C)CC1	i
Cn1c2ccccc2c2c(C(=O)N3CCN(c4ccccc4)CC3)cn(C3CCCC3)c(=O)c21	i
CCOc1cccc(C2C(C(=O)OC3CCCCC3)=C(C)NC3=C2C(=O)C(C(=O)OC)C(C)C3)c1 (stereo not given)	i
Nc1nonc1-c1nc2ccccc2n1CC(=O)O	12
CCc1nnc(NC(=O)C2CCCCC2C(=O)O)s1 (stereo not given)	i
Cc1cc(C)c(S(=O)(=O)NCC2CCC(C(=O)NCC3CCCO3)CC2)c(C)c1 (stereo not given)	i
CCCc1c(C(=O)OCC)[nH]c2c1C(=O)CC(c1ccc(C(C)(C)C)cc1)C2 (stereo not given)	4
CCCCn1c(SCC(=O)NC(C)CC)nc2ccc(N3CCOCC3)cc2c1=O (stereo not given)	4
O=C(CSc1nc2ccccc2c(=O)n1CC1CCC(C(=O)NCC2CCCO2)CC1)NCCc1ccccc1 (stereo not given)	i
CCOc1ccc(S(=O)(=O)N(C(=O)C2CCCCC2)c2ccc3oc(C)c(C(C)=O)c3c2)cc1	9
CCSCCOC(=O)C1=C(C)NC2=C(C(=O)C(C(=O)OC)C(C)C2)C1c1cc(OC)c(O)c(OC)c1 (stereo not given)	26
CCSCCOC(=O)C1=C(C)NC2=C(C(=O)C(C(=O)OC)C(C)C2)C1c1ccc(OC)cc1OC (stereo not given)	13
Cc1csc(-c2c(C(F)(F)F)oc3c(C)c(O)ccc3c2=O)n1	i
O=c1c(CO)cc(CO)cc(CO)c1O	i
CCC(C)(C(=O)NC1CCCC1)N(Cc1cccs1)C(=O)C1CCC(=O)N1 (stereo not given)	4
COc1cc([N+](=O)[O-])cc2c1N[C@@H](c1ccc(C(=O)O)cc1)[C@H]1CC=C[C@@H]21	i
CC(C)CN(CC(C)C)S(=O)(=O)N1CCC(C(=O)N2CCOCC2)CC1	i
COC(=O)C1C(=O)C2=C(CC1C)NC(C)=C(C(=O)OC(C)C)C2c1cccc(OC)c1 (stereo not given)	8
COCCN(CCOC)Cc1c(O)ccc2c(=O)c(Oc3cc(C)cc(C)c3)c(C(F)(F)F)oc12	i
COc1ccc2c(=O)c(-c3csc(C)n3)c(C(F)(F)F)oc2c1	i
COc1ccc(C2C(C(=O)N3CC(C)CC(C)C3)c3ccccc3C(=O)N2C)cc1 (stereo not given)	i
COc1ccc2c(c1)C(C)=CC(C)(C)N2C(=O)Nc1ccc(Cl)c([N+](=O)[O-])c1	i
CCOc1ccccc1C1C(C(=O)OC(C)CC)=C(C)NC2=C1C(=O)C(C(=O)OC)C(C)C2 (stereo not given)	5
CC(C)Cn1cc(C(=O)N2CCCCC2)c2c3ccccc3n(C)c2c1=O	i
COc1ccc(C2C(C(=O)OCC(C)C)=C(C)NC3=C2C(=O)CC(c2ccccc2)C3)c(OC)c1 (stereo not given)	i
CCOc1cc(C2C(C(=O)OCC(C)C)=C(C)NC3=C2C(=O)CC(c2ccc(OC)cc2)C3)cc(Br)c1O (stereo not given)	51
CCC(C)NC(=O)CSc1nc2cc3c(cc2c(=O)n1CCCCCC(=O)NCc1ccc(OC)cc1)OCO3 (stereo not given)	i
CC(C)C(CO)NC(=O)CC(=O)NC(CO)C(C)C (stereo not given)	i
CCCOC(=O)C1=C(C)NC2=C(C(=O)C(C(=O)OC)C(C)C2)C1c1ccc(-c2ccccc2)cc1 (stereo not given)	i
CCc1ccc(NC(=O)CSc2nc3ccsc3c(=O)n2CCCCCC(=O)Nc2ccc(OC)cc2)cc1	i
COc1ccccc1CNC(=O)Cn1cc(S(=O)(=O)N2CCC(C)CC2)c2ccccc2c1=O	4
CCN1C(=O)c2cccc3c(NC(=O)c4ccc(S(=O)(=O)N(CC(C)C)CC(C)C)cc4)ccc1c23	i
COc1ccccc1-c1c(C(F)(F)F)oc2cc(OCc3ccccc3)ccc2c1=O	i
CCOC(=O)C1=C(C)NC2=C(C(=O)C(C(=O)OC)C(C)C2)C1c1ccc(C)o1 (stereo not given)	11
CSC(=O)CNC1(Cc2ccc(O)cc2)CCCCC1	i

An excerpt; count on the stated rates, not on these rows.
